Compound activity as filed in PubChem.
LANA-H2A inh = blockers of LANA interaction with H2A/H2B – biochemical, FP readout, HTS, primary screen; cell-free LANA-H2A/H2B peptide, fluorescence polarization; inhibition, % (no concentration beside the values); 320,000 tested, 0.6% active; AID 2629, 2010; in the data active = inhibition mostly above about 10%, no sharp cut-off; inactive = mostly below about 6.7%;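 also: stock transfer was 7.5 nL into about 10 µL; 0% = median of vehicle wells and 100% = median of positive control wells; one replicate is shown; the record names a cut of 25% in any replicate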
T cruzi inh = inhibitors of intracellular T. cruzi growth, primary screen, luminescence, NIH3T3 host cells; T. cruzi beta-gal in NIH3T3, 90 h; inhibition, % (concentration not given with the values); 300,000 tested, 1.4% active; AID 1885, 2009;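 active = mean inhibition across valid replicates above about 55%, limit read from the data; inconclusive = mean below that limit but half or more replicates reach it; inactive = mean below it, under half of replicates reach it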;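 also: signal also drops with host cell toxicity which is not excluded here; 0% = plate median of DMSO wells and 100% = zero luminescence signal; higher percent means less beta-gal luminescence so fewer parasites; stock transfer was 50 nL into about 50 µL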
RanGTP-Impb inh = inhibitors of RanGTP-importin-beta interaction, primary screen, biochemical, FRET, CFP-Ran, YFP-importin-beta, homogeneous | Ran GTPase (GTP-bound) - importin-beta complex | cell-free CFP-Ran/YFP-importin-beta FRET ratio | inhibition, % (test concentration not listed) | 300,000 tested, 1.1% active | AID 2216, 2009;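 active = most replicates above 15%; inconclusive = exactly half above 15%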;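 also: 0% = DMSO wells and 100% = Ran loaded with GDP instead of GTP; wells of about 40 µL received 100 nL stock; the first replicate is given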
UCH37 DUB inh = inhibitors of human UCH37 deubiquitinase, primary screen, biochemical, Ub-AMC cleavage, fluorescence; purified proteasome/UCH37; inhibition, % (test concentration not listed); Ubiquitin carboxyl-terminal hydrolase isozyme L5 (Homo sapiens), Q9Y5K5; AID 588478, 2011; 330,000 tested, 0.33% active;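 active = mean of two replicates above 20%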;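 also: 0% = compound-free wells with enzyme and 100% = wells lacking proteasome; stock transfer was 100 nL into about 20 µL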
Target sequence (Q9Y5K5 whole entry, looked up): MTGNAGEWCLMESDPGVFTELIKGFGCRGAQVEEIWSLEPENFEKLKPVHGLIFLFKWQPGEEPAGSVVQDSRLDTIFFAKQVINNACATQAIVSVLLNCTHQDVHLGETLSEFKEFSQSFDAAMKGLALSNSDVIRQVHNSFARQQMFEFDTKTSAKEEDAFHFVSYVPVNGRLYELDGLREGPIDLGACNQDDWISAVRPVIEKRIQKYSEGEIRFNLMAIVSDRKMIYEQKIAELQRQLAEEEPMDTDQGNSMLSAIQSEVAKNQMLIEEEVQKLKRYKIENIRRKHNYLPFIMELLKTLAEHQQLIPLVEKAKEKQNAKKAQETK
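System: Proteasome-associated human UCH37 deubiquitinase; Input: 0.15 nM proteasome in added enzyme buffer; Also added: Ub-AMC substrate from 1 µM stock; Incubation: 30 min compound-proteasome preincubation then 25 min substrate reaction, room temperature; Detection: fluorescence, ex 355 nm, em 460 nm; Read-out: % inhibition of Ub-AMC cleavage fluorescence; Benchmarks: no-proteasome and no-compound wells.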
Beta cell apopt = inhibitors of cytokine-induced beta cell apoptosis, primary screen, luminescence. protection from apoptosis, % (test concentration not listed). INS-1E cytokine-induced death, ATP luminescence, 48 h; percent of positive-control rescue, neutral wells zero. 300,000 tested, 0.8% active;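 active = all replicates at 75% or more, or half of them and the mean; inconclusive = half reach 75% but not the mean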;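 also: 0% = cytokine-treated negative control wells and 100% = positive control rescue; higher means more ATP so stronger rescue from cytokine killing; wells of about 40 µL received 100 nL stock; the first replicate is given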
Bfl-1 A1 inh = caspase 3/7 activation in MEF A1-2A-BIM cells, primary screen, A1 inhibitor project, cell-based, luminescence, HTS; AID 2462, 2010; Caspase-Glo 3/7 luminescence, 3 h; percent of clofoctol response, vehicle zero; caspase activation, % (no concentration beside the values); 330,000 tested, 0.066% active;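 active = over half of replicate activation scores above 10%, or exactly half above 10 with the replicate mean above 10; inconclusive = replicate mean below 10 yet half the replicates above 10; inactive = over half of replicates below 10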;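 also: wells of about 30 µL received 50 nL stock; many hits fall short of the cut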
Calb FLC = C. albicans growth inhibition with fluconazole, primary screen, CaCi-2 strain, Alamar Blue fluorescence; C. albicans CaCi-2 (fluconazole-resistant clinical isolate) + fluconazole, 48 h; growth inhibition, % (no concentration beside the values); 300,000 tested, 0.57% active; AID 1979, 2009;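 active = most replicates above 75%; inconclusive = exactly half above 75%; inactive = most below 75%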;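 also: all wells also contain fluconazole at 8 µg/ml as a sub-toxic cotreatment; 0% = median of DMSO wells and 100% = median of geldanamycin control wells; wells of about 8 µL received 7.5 nL stock; the first replicate is given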
B2AR ag = beta2AR agonists driving receptor internalization, primary screen, cell-based, FAP fluorogen, flow cytometry. Beta-2 adrenergic receptor (Homo sapiens), P07550. Am2.2-beta2AR cells; reference of the scale not given here. response, % (no concentration beside the values). 340,000 tested, 0.43% active. AID 504454, 2011;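 active = response above a set limit, near 3 SD of response in nonfluorescent compounds, cut at about 42% in these data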;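 also: stock transfer was 100 nL into about 11 µL; a reference agonist was the positive control; negative values mostly stem from fluorescent compounds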
Target sequence (P07550 whole entry, looked up): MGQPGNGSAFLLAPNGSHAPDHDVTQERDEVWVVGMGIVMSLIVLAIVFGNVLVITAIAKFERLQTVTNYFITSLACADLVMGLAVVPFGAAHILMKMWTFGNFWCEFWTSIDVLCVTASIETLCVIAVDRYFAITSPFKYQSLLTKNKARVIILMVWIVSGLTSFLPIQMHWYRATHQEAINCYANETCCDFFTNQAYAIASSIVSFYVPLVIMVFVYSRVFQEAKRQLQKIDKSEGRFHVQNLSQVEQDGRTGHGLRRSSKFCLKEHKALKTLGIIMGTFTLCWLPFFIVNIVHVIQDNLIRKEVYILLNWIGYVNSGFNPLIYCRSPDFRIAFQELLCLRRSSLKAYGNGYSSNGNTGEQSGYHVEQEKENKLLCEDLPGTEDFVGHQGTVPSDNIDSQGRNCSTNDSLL
* hit, by the source's call; ? = inconclusive; · = not tested or not shown.

SMILES	LANA-H2A inh	T cruzi inh	RanGTP-Impb inh	UCH37 DUB inh	Beta cell apopt	Bfl-1 A1 inh	Calb FLC	B2AR ag
COc1ccccc1NC(=O)c1c(N=Cc2c(O)ccc3ccccc23)cnn1C	-4.2	-5	-4.5	3.4	2	1.9	13	16
CCn1c(=O)c([N+](=O)[O-])c(NCC(O)c2ccccc2)c2ccccc21 (configuration not stated)	5.9	41	?	4.9	4	0.1	-2	1
CC1CCCCC1NC(=O)COCc1cc(-c2cccs2)on1 (configuration not stated)	2.0	-3	6.3	0.8	-3	-0.4	-6	-4
Cc1nc(NC(C)C(=O)O)c2nc(C)oc2n1 (configuration not stated)	-0.8	-1	0.9	0.8	-2	0.4	9	7
CCN(CC(=O)Nc1ccc2c(c1)OCCO2)C(=O)/C=C/c1ccc([N+](=O)[O-])cc1	-1.5	·	·	0.5	2	-0.3	·	3
CCCCCCCNC(=O)C1(CC2CC(c3cccc(Br)c3)=NO2)CCN(C(=O)CCCCCBr)CC1 (configuration not stated)	1.0	0	3.7	-0.5	4	0.0	-16	10
CN(C)c1ccc(C2Nc3ccccc3C(=O)N2NS(=O)(=O)c2ccccc2)cc1 (configuration not stated)	-0.1	10	·	-41	-6	1.1	-17	-30
O=C(Nc1ccc(SC(F)F)cc1)c1ccc2c(=O)n3c(nc2c1)CCC3	-5.9	·	·	2.3	13	-1.4	·	2
CCOc1ccc2[nH]c(=O)c(CN(CCO)C(=O)c3ccc(Br)cc3)cc2c1	-4.6	-7	-2.3	-13	-6	-0.4	-4	-8
CCCc1cc(-c2n[nH]c(=S)n2CC)cs1	1.9	-1	4.2	0.3	-5	-0.4	-18	-3
COC(=O)c1ccccc1S(=O)(=O)N1CCC(C(=O)OCc2cccc(OC)c2OC)CC1	-2.3	3	4.7	1.5	-6	-0.1	5	1
CN(C)c1nc2c(c(=O)n(C)c(=O)n2C)n1CC(=O)c1cccs1	1.1	0	-1.3	4.2	1	-0.2	2	2
O=C(/C=C/c1ccc(Br)cc1)N1CCN(Cc2ccccc2)CC1	0.1	8	2.5	1.4	·	-0.1	1	-8
O=C(N/N=C/c1ccccn1)c1cccc(NC(=O)c2ccc(Cl)cc2)c1	-0.5	-16	3.1	·	6	0.6	10	19
O=C(CN1C(=O)S/C(=C/c2ccccn2)C1=O)N1CCOCC1	-1.5	-11	0.1	10.0	-5	0.5	-7	-3
C(=N\N1CCOCC1)/c1ccsc1	4.9	1	1.9	·	1	-0.4	9	-1
COc1ccc(C(=O)COC(=O)c2ccc3c(c2)OCO3)c(OC)c1	-0.1	·	·	2.9	3	0.2	·	1
CCOC(=O)[C@H]1[C@H]2COc3ccc(Cl)cc3[C@@H]2N2C(=O)c3ccc(Cl)cc3NC(=O)[C@@]12C	5.3	·	·	-1.2	3	0.7	·	7
Cc1cc(Cl)ccc1OCC(=O)NN1C(=O)C2C3C=CC(C3)C2C1=O (configuration not stated)	7.6	-13	1.9	-2.0	·	0.0	30	-7
COc1ccc(S(=O)(=O)Nc2cccc(Cl)c2)cc1OC	-3.6	1	-2.7	6.6	0	1.1	9	2
CC(=O)Nc1ccc(NC(=O)COC(=O)Cc2c[nH]c3ccccc23)cc1	0.5	-10	3.7	0.8	-16	-0.2	-3	-2
CCc1ccc(-n2cc(-c3ccc([N+](=O)[O-])cc3)[nH]c2=S)cc1	1.5	-26	-2.1	6.3	·	-0.5	-4	-7
Cc1cc(C)cc(OCCCCCNCCO)c1	3.1	0	·	0.5	-5	-0.5	-2	32
O=C(c1ccco1)N1CCN(CC(O)Cn2c3ccccc3c3ccccc32)CC1 (configuration not stated)	-4.0	-3	1.1	1.2	-2	?	-5	1
CC(=O)c1ccc(N2CCN(C(=O)C3CCCN3S(=O)(=O)c3cccc4nsnc34)CC2)cc1 (configuration not stated)	1.2	-20	-5.3	5.3	-8	1.6	13	6
CCCCCn1c(=N)c(S(=O)(=O)c2ccc(Cl)cc2)cc2c(=O)n3cccc(C)c3nc21	1.1	17	67*	-11	6	-0.7	-23	-4
COc1ccc(N(C)C(=O)c2cnc(N3CCN(c4ncccn4)CC3)c3ccccc23)cc1	-3.9	-10	-1.4	3.9	-4	0.1	-5	11
COc1ccccc1-c1nnc(SCC(=O)c2ccc(C3CCCCC3)cc2)n1Cc1ccco1	6.7	39	1.7	2.6	3	0.0	-5	-1
CCS(=O)(=O)N1CCN(Cc2c[nH]c3ccccc23)CC1	-1.5	-9	-4.8	0.3	-6	1.2	-7	4
O=C(O)CSc1nnc(Cn2cnc3ccccc32)n1CCc1ccccc1	0.3	-3	-1.4	1.7	-2	0.4	3	3
C=CCNC(=O)c1ccc(N(Cc2ccccc2)S(C)(=O)=O)cc1	3.4	1	-1.2	1.8	·	0.5	-5	-3
CCOc1ccccc1NC(=O)C1=C(C)NC(=O)NC1c1cccs1 (configuration not stated)	2.2	-9	0.8	0.9	0	0.9	16	-4
Cc1ccc(NC2CCCN(C(=O)c3ccc(F)cc3)C2)cc1C (configuration not stated)	1.8	-10	1.7	0.0	·	-0.7	1	-2
O=S(=O)(c1ccc(Cl)cc1)N1CCCC1c1nc2ccccc2s1 (configuration not stated)	4.7	3	-3.7	-0.3	0	-0.5	8	-13
Cc1ccc(CNC(=O)Cn2ccc(NC(=O)OCc3ccccc3)nc2=O)o1	0.8	·	·	1.7	-4	-0.4	·	2
Cc1cnc(NC(=O)c2ccc(OCC3CCCO3)cc2)s1 (configuration not stated)	4.9	-5	1.5	0.5	-12	-7.2	2	1
O=C(CN1CCN(Cc2ccccc2F)C1=O)NCc1ccco1	-5.1	1	3.2	4.9	·	-0.4	-9	-3
CCOc1ccc(CNc2nnnn2C)cc1OC	9.8	-13	-4.3	0.8	-4	0.5	-3	7
Cc1cccc(NC(=O)Cn2nc(C(F)(F)F)cc2C2CC2)c1	·	17	-0.7	4.1	·	·	-26	1
Cc1ccc2ncccc2c1[N+](=O)[O-]	-0.1	-9	-3.3	2.2	2	0.2	3	0
O=c1[nH]c(SCc2ccc([N+](=O)[O-])cc2)nc2[nH]ncc12	-1.6	-18	-0.2	13	5	-0.3	2	-12
O=C(c1ccco1)N1CCCN(C(=O)c2ccco2)CC1	1.0	0	-0.1	-1.4	-9	0.0	-1	6
Cc1ccc(C(=O)COC(=O)CCC(=O)NC2CCCCC2)cc1[N+](=O)[O-]	-3.6	-13	-0.3	1.1	-1	0.1	?	-8
O=C(O)C(CO)N=Cc1c(O)c2ccccc2oc1=O (configuration not stated)	-0.8	4	-0.4	7.0	-4	-0.5	-5	3
CCOC(=O)c1ccc(NCc2ccc3c(c2)OCO3)cc1	-0.2	9	?	1.3	-8	-0.6	-27	3
CCCCCOc1ccc(/C=C/c2c([N+](=O)[O-])c(=O)n(C)c(=O)n2C)cc1	13	49	-2.1	3.3	11	0.0	-10	-4
CCN(CC)S(=O)(=O)c1ccc(Cl)c(C(=O)Nc2nncs2)c1	-2.5	38	-0.4	1.9	-7	0.6	8	2
O=C(Nc1ncc(Cc2cccc(Cl)c2)s1)C1CCCO1 (configuration not stated)	-10	18	-1.6	1.1	-9	-1.0	-7	-7
O=C(Cn1ncc2c([nH]c3ccccc32)c1=O)N1CCN(c2ccccn2)CC1	-0.4	-12	4.5	-0.6	-5	-0.7	4	-1
COc1cc(/C=N/NC(=O)CC23CC4CC(CC(C4)C2)C3)cc(Br)c1OCC(=O)N(C)C	2.7	13	4.2	·	-3	0.4	16	-11
CC(C)[C@H](NC(=O)c1ccc(C(C)(C)C)cc1)C(=O)Nc1nnc(C2CC2)s1	-1.3	10	-3.6	1.4	0	0.2	-1	4
CN(Cc1ccccc1)C(=O)c1ncn(C)c1C(=O)N(C)Cc1ccccc1	-2.8	·	·	3.1	-8	-1.0	·	-1
Cc1nc2c3cc(F)ccc3n(Cc3ccccc3)c2s1	-6.4	-40	0.7	5.6	100*	0.4	-12	6
CCc1ccccc1NC(=S)N(CCN1CCCCC1)Cc1ccco1	6.4	-4	-0.5	0.9	-4	-0.1	-21	-2
CCN(CC(=O)Nc1c(F)cccc1F)C(=O)C1CC1C (configuration not stated)	-3.3	-5	-3.9	3.8	-5	0.2	0	-2
CCCCN(C)C1CCN(C(=S)Nc2ccc(OC)cc2)CC1	2.5	18	3.6	5.7	0	0.0	-2	-3

Single records (already shown):
Profile of Cc1nc2c3cc(F)ccc3n(Cc3ccccc3)c2s1 → LANA-H2A inh: -6.4; T cruzi inh: -40; RanGTP-Impb inh: 0.7; UCH37 DUB inh: 5.6; Beta cell apopt: 100*; Bfl-1 A1 inh: 0.4; Calb FLC: -12; B2AR ag: 6
Profile of O=c1[nH]c(SCc2ccc([N+](=O)[O-])cc2)nc2[nH]ncc12 → LANA-H2A inh: -1.6; T cruzi inh: -18; RanGTP-Impb inh: -0.2; UCH37 DUB inh: 13; Beta cell apopt: 5; Bfl-1 A1 inh: -0.3; Calb FLC: 2; B2AR ag: -12

In the list so far, these have an aryl methoxy group.
SMILES	LANA-H2A inh	T cruzi inh	RanGTP-Impb inh	UCH37 DUB inh	Beta cell apopt	Bfl-1 A1 inh	Calb FLC	B2AR ag
COc1ccccc1NC(=O)c1c(N=Cc2c(O)ccc3ccccc23)cnn1C	-4.2	-5	-4.5	3.4	2	1.9	13	16
COC(=O)c1ccccc1S(=O)(=O)N1CCC(C(=O)OCc2cccc(OC)c2OC)CC1	-2.3	3	4.7	1.5	-6	-0.1	5	1
COc1ccc(C(=O)COC(=O)c2ccc3c(c2)OCO3)c(OC)c1	-0.1	·	·	2.9	3	0.2	·	1
COc1ccc(S(=O)(=O)Nc2cccc(Cl)c2)cc1OC	-3.6	1	-2.7	6.6	0	1.1	9	2
COc1ccc(N(C)C(=O)c2cnc(N3CCN(c4ncccn4)CC3)c3ccccc23)cc1	-3.9	-10	-1.4	3.9	-4	0.1	-5	11
COc1ccccc1-c1nnc(SCC(=O)c2ccc(C3CCCCC3)cc2)n1Cc1ccco1	6.7	39	1.7	2.6	3	0.0	-5	-1
CCOc1ccc(CNc2nnnn2C)cc1OC	9.8	-13	-4.3	0.8	-4	0.5	-3	7
COc1cc(/C=N/NC(=O)CC23CC4CC(CC(C4)C2)C3)cc(Br)c1OCC(=O)N(C)C	2.7	13	4.2	·	-3	0.4	16	-11
CCCCN(C)C1CCN(C(=S)Nc2ccc(OC)cc2)CC1	2.5	18	3.6	5.7	0	0.0	-2	-3
